Screening data (PubChem)
Sfp inh = inhibitors of Bacillus subtilis Sfp phosphopantetheinyl transferase | Q9F4F7 | Biochemical Sfp PPTase activity, qHTS | Potency, µM, without a hit: max response, negative = inhibition, most hits filed as inhibitors | actives 3.5% (n = 310,000) | AID 1490; active = well fitted inhibition curve with a large enough effect; inconclusive = small, poorly fitted or top-dose-only effect, or another doubt; inactive = no such curve, though single readings can be large or run the other way;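 also: the enzyme is Sfp with the accession as filed and its product quenches rhodamine fluorescence; potency is read from the fitted curve at half-maximal effect; 0% = enzyme reaction without inhibitor and -100% = no enzyme wells; top concentration of the series not given in the record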
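After 15 min at room temperature with compound, 15 nM Sfp received 5 uM rhodamine-CoA plus 12.5 uM BHQ-2-ybbR (50 mM Hepes pH 7.6, 10 mM MgCl2). Rate came from the fluorescence difference over 30 min, ex 525/em 598 nm.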
Menin MLL FP FL = menin-MLL binding inhibition, fluorescein peptide | AID 1766 | FP activity change, % at 61.4 µM | 290,000 tested, under 10 active | Fluorescence polarization, fluorescein-MLL peptide displacement from menin; inconclusive = falling polarisation curve, or a change in total fluorescence; inactive = total fluorescence flat and polarisation flat or rising; no compound was filed as active; the % refers to the polarisation; negative = inhibition;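 also: % of control where 0% means no effect; inhibitors lower the polarisation; unlabelled MLL peptide was the positive control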
PINK1 modulator = modulators of PINK1 expression; PINK1 immunofluorescence, high-content cytometry, 24 h; Potency, µM (doses to about 76.6 µM), for the others: at the top dose activation (PINK1 increase), hits mostly activators; actives 0.2% (n = 410,000); active = well fitted activation curve with a large enough effect; inconclusive = small, poorly fitted or top-dose-only effect; inactive = flat fitted curve, though single readings scatter; cell line not stated here;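 also: potency is read from the fitted curve at half-maximal effect; % of control where 0% means no effect; nearly all actives have a fitted effect of over 65% in size; a mitochondrial uncoupler was the plate control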
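Cells are seeded, rested 12 hours, then given compound at five concentrations or DMSO for 24 hours. After fixation, blocking and antibody staining, PINK1 amount and mitochondrial localization are scored; CCCP serves as control.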
gsp agonist = gsp mutant agonism. gsp mutant cells, cAMP HTRF, 30 min; control for the full effect not named in the record. Potency, µM (doses to about 76.9 µM), inactives show top-dose activation (cAMP increase), actives largely listed as activators. actives 0.13% (n = 340,000); active = well fitted activation curve with a large enough effect; inconclusive = small, poorly fitted or top-dose-only effect, or another doubt; inactive = no such curve, though single readings can be large or run the other way; cell line not stated here;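 also: phosphodiesterase inhibitor Ro 20-1724 added with compounds to block cAMP breakdown; potency is read from the fitted curve at half-maximal effect; nearly all actives have a fitted effect of over 60% in size; about a fifth of the inactives were tested at one dose only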
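Cells in DMEM/10% FBS with G418 were pretreated with compounds in DMSO plus […] (300 uM stock) for 30 min at 37C. cAMP was measured by HTRF (cAMP-d2 plus anti-cAMP antibody-K) after 30 min at room temperature.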
ClpP mod = qHTS Assay for Activators of ClpP; ATP-dependent Clp protease proteolytic subunit (Bacillus subtilis (strain 168)), P80244; purified B. subtilis ClpP, FRET peptide cleavage, 20 min; Potency, µM (top dose mostly 57.5 µM), for inactives: at the top dose activity change, negative = active; actives 1.9% (n = 340,000); AID 651965, 2013; active = well fitted falling curve with a large enough effect; inconclusive = small, poorly fitted or top-dose-only effect; inactive = no such curve, though single readings can be large or run the other way; also: potency is read from the fitted curve at half-maximal effect; the source files actives as falling curves though it sought activators and does not explain the sign; nearly all actives have a fitted effect of over 65% in size; many hits overshoot -100%
Target sequence (P80244 whole entry, looked up): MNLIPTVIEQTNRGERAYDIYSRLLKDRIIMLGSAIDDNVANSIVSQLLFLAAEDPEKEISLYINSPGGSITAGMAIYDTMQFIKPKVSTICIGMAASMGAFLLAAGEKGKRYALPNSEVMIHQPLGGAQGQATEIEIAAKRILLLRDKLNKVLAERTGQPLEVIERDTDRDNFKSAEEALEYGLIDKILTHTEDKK
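Buffer: 100 mM Tris/HCl pH8, 100 mM KCl, 0.05% low protease BSA, 2.5% glycerol, 0.01% Tween-20. ClpP 10 microg/mL final; 20 min RT; delta FRET normalized to ADEP and DMSO controls.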
gsp antagonist = gsp mutant antagonism. gsp-mutant cells, cAMP HTRF, 30 min; control for the full effect not named in the record. Potency, µM (doses to about 76.9 µM), for the others: at the top dose activity change, negative = inhibition, most hits filed as inhibitors. AID 624288. actives 0.4% (n = 340,000); active = falling curve of any shape with a large fitted effect; inconclusive = falling curve, mostly with a smaller effect; inactive = flat or rising curve; cell line not stated here;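 also: intracellular cAMP measured with PDE inhibitor Ro 20-1724 present during compound exposure; potency is read from the fitted curve at half-maximal effect; % is scaled to controls: 0 for no effect and ±100 for the full control effect; nearly all actives have a fitted effect of over 65% in size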
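HTRF cAMP measurement after 30 min RT detection following 30 min, 37C compound treatment alongside […] (added as 300 uM solution) in G418-selected cells seeded at 2000/well and grown 16–24 h.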
D2 agonist = human D2 receptor agonism in beta-arrestin assay; activation, % (no concentration beside the values); DiscoveRx PathHunter D2 beta-arrestin, luminescence, 90 min; 100% = 57 uM dopamine signal; actives 0.084% (n = 360,000); P14416; in the data active = activation above about 40%; inconclusive = about 15% to 40%; inactive = below about 15%; also: compound concentration not given in the record; the text of the record calls up to 30% inactive
Target sequence (P14416 whole entry, looked up): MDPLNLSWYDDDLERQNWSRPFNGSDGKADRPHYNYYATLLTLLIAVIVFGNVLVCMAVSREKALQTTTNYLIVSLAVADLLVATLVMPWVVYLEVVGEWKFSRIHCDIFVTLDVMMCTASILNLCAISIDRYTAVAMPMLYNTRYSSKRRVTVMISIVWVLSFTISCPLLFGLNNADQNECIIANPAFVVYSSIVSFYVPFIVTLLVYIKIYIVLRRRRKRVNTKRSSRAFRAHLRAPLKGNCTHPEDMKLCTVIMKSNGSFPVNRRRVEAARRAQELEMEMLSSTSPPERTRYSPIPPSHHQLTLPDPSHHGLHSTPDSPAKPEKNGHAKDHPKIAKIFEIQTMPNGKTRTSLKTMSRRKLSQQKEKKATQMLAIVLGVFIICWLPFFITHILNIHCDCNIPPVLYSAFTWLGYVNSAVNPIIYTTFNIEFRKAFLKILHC
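DiscoveRx PathHunter D2 beta-arrestin cells (2,100/well) attached overnight, then compound-stimulated 90 min at 37 C in HBSS/10 mM HEPES/0.1% Tween-20 buffer; beta-galactosidase complementation read by luminescence after 1 h at ambient temperature. Dopamine 57 uM final (EC100) as control.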
Starred values were filed as active, the others as inactive; ? = inconclusive; · = not tested or not shown; [ ] = remark or other dose.

molecule | Sfp inh | Menin MLL FP FL | PINK1 modulator | gsp agonist | ClpP mod | gsp antagonist | D2 agonist
CC(S(=O)(=O)c1ccccc1)S(=O)(=O)c1ccccc1 | · | · | 0.0% | ? | -0.4% | · | -7.3
C=CCn1c(-c2cccnc2)n[nH]c1=S | 11.8% | 4.0 | 0.4% | 6.5% | -1.0% | 11.1% | 0.0
CC(=O)Nc1cc(ON=C(C)C)cc([N+](=O)[O-])c1 | -0.8% | 1.0 | 3.1% | 6.7% | -4.9% | 10.0% | -2.2
CCOc1ccc(-n2ccc(=O)c(C(=O)Nc3ccc(S(=O)(=O)Nc4ncccn4)cc3)n2)cc1 | 20.0% | · | -0.5% | ? | -5.6% | -12.6% | 0.3
CC1CCC2(CC1)NC(=S)N(c1ccccc1)N2 (stereo unspecified) | 56.2µM* | 5.2 | 0.1% | -1.6%[15.4 µM] | 0.2% | -1.6% | -12.7
COc1ccc(NC(=O)c2cc(C3CCCCN3S(=O)(=O)c3cn(C)cn3)on2)c(C)c1 (stereo unspecified) | · | · | 0.9% | · | 1.3% | · | 1.8
Clc1ccc(-c2nnc(N3CCCC3)nn2)cc1 | 5.2% | 0.0 | -2.0% | -20.0% | 0.1% | 1.6% | -2.3
CCOc1ccccc1C(=O)N/N=C/c1coc2ccc(C)cc2c1=O | -8.0% | · | 7.6% | -11.6% | 118.2% | 8.6% | -10.7
O=C(O)CCCCCCCCCCCc1ccccc1 | 17.0% | 0.4 | -0.4% | · | -0.8% | -9.2% | -1.8
COc1cc(C(=O)NCCSc2ccc(Cl)cc2)cc(OC)c1OC | 3.3% | 1.1 | 1.4% | -20.3% | 1.2% | -16.0% | -5.9
Cc1c(OCC(=O)C(C)(C)C)ccc2c(-c3ccccc3)cc(=O)oc12 | 10.5% | 3.6 | 0.9% | -3.3% | ? | -6.9% | -3.8
Cc1ccc(-c2cc3nc(-c4ccc(Br)cc4)cc(N)n3n2)cc1 | 16.9% | 3.7 | 5.5% | -5.5% | 28.2µM* | 1.2% | -0.3
COC(=O)c1c(C(=O)OC)c2oc3ccccc3n2c1Cl | 9.0% | -1.3 | -0.2% | 6.2% | -2.0% | 3.3% | 1.2
COC(=O)CCCC[C@@H]1SC[C@@H](NC(=O)OC)[C@@H]1NC(=O)OC | -4.7% | -1.1 | ? | -24.1% | 3.2% | 9.9% | -1.6
COc1ccc(/C=N\NC(=O)c2ccc(=O)[nH]n2)cc1O | -2.7% | 1.1 | -3.4% | -7.7%[15.4 µM] | -12.4% | 5.5% | 0.8
COc1ccc(N(C(=O)CNC(=O)c2ccco2)C(C(=O)NCC2CCCO2)c2ccccc2)cc1 (stereo unspecified) | 5.0% | 0.6 | 3.0% | 17.0%[15.4 µM] | -0.6% | -24.3% | -4.3
C=CCC(Nc1ccccc1)c1cccc(OC)c1OC (stereo unspecified) | 3.9% | 4.5 | 10.1% | -5.8% | · | -18.0% | -3.5
Cc1nnc(Sc2cc(C(=O)NCCCOC(C)C)c3ccccc3n2)s1 | 5.0% | -0.8 | 0.2% | -27.8% | -6.5% | -7.0% | -4.2
Cc1ccc(NS(=O)(=O)c2ccc(C(=O)NCc3ccncc3)cc2)cc1 | · | · | 2.1% | -54.6%[inhibitor] | 0.7% | 14.0% | 0.4
CCCCCCOC(=O)/C=C/c1c(C)[nH]c(=O)[nH]c1=O | -1.0% | -1.2 | 0.3% | -4.7% | 1.3% | -5.5% | -1.4
O=C(NNC(=O)c1nn(-c2ccc(F)cc2)ccc1=O)Nc1cccc(Cl)c1 | 0.3% | -1.0 | 1.3% | -0.4% | · | 11.0% | -4.7
Cc1[nH][nH]c(=O)c1C(c1ccc([N+](=O)[O-])cc1)c1c(C)[nH][nH]c1=O | -0.1% | 6.0 | 2.4% | 6.4% | -1.6% | 2.0% | -6.4
COCCn1c(=NC(=O)C2COc3ccccc3O2)sc2cc(S(N)(=O)=O)ccc21 (stereo unspecified) | 4.8% | 1.9 | 3.3% | -0.1%[15.4 µM] | -1.4% | -12.2% | 3.0
Cn1c(C(O)c2ccc3c(c2)OCO3)nc2ccccc21 (stereo unspecified) | 3.1% | 0.1 | 0.4% | 5.4% | 1.5% | 3.9% | -0.6
Cc1ccc(Cl)cc1N(C(=O)c1csnn1)C(C(=O)NC1CCCC1)c1ccco1 (stereo unspecified) | 19.9% | 2.2 | -2.0% | -18.4% | · | -8.6% | 1.9
CCC(=O)N1CCN(c2ccc(NC(=O)c3ccc(N4CCCC4)c([N+](=O)[O-])c3)cc2)CC1 | -2.1% | 4.6 | 9.4% | 6.4%[15.4 µM] | · | 0.9% | -4.4
CCOC(=O)N1CCN(S(=O)(=O)c2cccc3nsnc23)CC1 | -0.2% | -0.5 | 1.4% | -1.3% | -0.4% | 3.8% | 0.5
Cc1cccc(-c2c3c(nc4c2c(=O)n(C)c(=O)n4C)-c2ccccc2C3O)c1 (stereo unspecified) | · | · | 10.7% | 1.8%[15.4 µM] | · | -25.5% | -4.9
Cc1ccc(S(=O)(=O)NC(=O)Nc2cccc(C)n2)cc1 | 12.8% | 4.7 | -0.8% | 11.8%[15.4 µM] | · | 6.2% | -6.5
COCCNC(=O)CCn1nc(-c2ccc(C)cc2)ccc1=O | 7.2% | 4.9 | 2.8% | -0.9% | · | -0.5% | 0.5
CN(C)CCOC(=O)C12CC3CC(C1)CC(C(=O)OCCN(C)C)(C3)C2 | 20.8% | -3.1 | 2.1% | -5.9%[15.4 µM] | · | 10.8% | -2.9
COc1ccc(C(C(=O)NC(C)(C)C)N(C(=O)CCC(=O)Nc2cc(C)on2)c2ccc(C)c(C)c2)cc1 (stereo unspecified) | 8.8% | 1.8 | 3.1% | -7.4%[15.4 µM] | 0.0% | -11.5% | -4.6
COc1ccccc1C1NC(=O)c2ccccc2O1 (stereo unspecified) | 7.6% | -4.9 | 1.7% | -19.9%[15.4 µM] | -0.9% | 6.6% | -5.6
O=C1[C@H]2[C@@H](c3ccc(F)cc3)N3C(=O)N(c4cccc(Cl)c4)C(=O)[C@@]3(Cc3ccccc3)[C@H]2C(=O)N1C1CCCCC1 | · | · | 1.5% | · | 0.7% | -20.5% | -2.5
Clc1ccc(C2=Nn3c(nnc3-c3n[nH]c4c3CCC4)SC2)cc1 | 3.8% | 3.8 | 1.1% | ? | -2.0% | 16.3% | -1.9
CC(=O)c1cccc(NC(=O)CSc2nnc(C(C)N(C)C)n2-c2ccc(F)cc2)c1 (stereo unspecified) | 10.5% | -1.3 | 3.0% | -5.5% | · | 0.0% | -2.8
CCN(CC)CCn1c2c(c(SCC(=O)Nc3cccc4ccccc34)nc1=O)CCC2 | · | · | -9.0% | 6.0% | -10.0% | 4.1% | -1.5
O=C(Nc1ccc(O)cc1C(=O)O)c1cccc(Br)c1 | 8.2% | 2.8 | -3.0% | -2.7% | 2.0% | -16.4% | -0.9
COc1cc(C(=O)NCC(=O)NNC(=O)C2COc3ccccc3O2)cc(OC)c1OC (stereo unspecified) | · | · | 0.1% | 13.6% | 0.4% | 16.8% | -2.1
COCCn1c(SCC(=O)N2CCCC2)nnc1-c1ccoc1C | -0.9% | -0.4 | -0.1% | -22.8% | -0.5% | 3.4% | -3.9
OC(CC#CCN1CCCC1)(c1ccccc1)c1ccccc1 | 0.1% | 0.2 | -1.6% | -2.4%[15.4 µM] | -2.0% | -8.8% | -5.4
N#Cc1ccsc1NC(=O)CSc1nnc(NC2CC2)s1 | · | · | 0.4% | 25.4% | -0.3% | · | 0.7
Cn1ccc2c(-c3ccc(C(C)(C)C)cc3)cc3c(c21)C1CCC3C1 (stereo unspecified) | · | · | 3.0% | · | 4.8% | · | 1.8
CCN(CC)S(=O)(=O)c1cccc(-c2nnc(SCC(=O)N3CCC(C(=O)O)CC3)n2N)c1 | 20.5% | 1.4 | 3.9% | 15.8% | · | 7.2% | -0.2
COc1ccc(C(=O)N2CCCC(Nc3ccc(C)c(C)c3)C2)cc1F (stereo unspecified) | 2.6% | 1.0 | 0.1% | 20.2%[15.4 µM] | -1.3% | -7.1% | 1.6
COc1ccc(C2Nc3ccccc3C(=O)N2NS(=O)(=O)c2ccccc2)cc1OC (stereo unspecified) | 24.2% | -0.8 | -1.0% | -1.5% | · | 3.8% | 6.6
COc1ccc(OC)c(CCNC(=O)CCc2cn(C)c3ccccc23)c1 | 4.7% | 3.7 | 1.9% | 22.0% | · | -10.0% | -1.5
O=C(Cn1c2c(c(-c3ccccc3)cc1=O)CCCC2)N1CCCCCC1 | 12.9% | 3.4 | 3.7% | -2.5% | 0.1% | ? | -7.4
Cc1ccc(S(=O)(=O)CC(C)(O)CS(=O)(=O)c2ccc(C)cc2)cc1 | 13.2% | ? | 3.7% | -17.6% | · | 4.7% | 1.7
CCOC(=O)c1c(C)n(OC)c2ccc3c(no[n+]3[O-])c12 | 16.5% | -1.0 | -4.8%[38.3 µM] | -0.3% | 0.3% | -1.7% | -0.3

New compounds follow:
molecule | Sfp inh | Menin MLL FP FL | PINK1 modulator | gsp agonist | ClpP mod | gsp antagonist | D2 agonist
CC(=O)N1c2ccc(S(=O)(=O)N3CCCCC3)cc2CC1C(=O)NCc1ccc(N(C)C)cc1 (stereo unspecified) | 0.5% | · | -1.3% | -4.3% | -1.7% | -18.4% | -2.4
O=C1NC(=S)N/C1=C/c1cccnc1 | 17.4% | 4.8 | -0.4% | 2.8% | -0.5% | -15.0% | -6.9
C#CCOCCOCCOCCNc1nc(N2CCOCC2)nc(N2CCN(C(=O)[C@H](CCCCN)n3cc([C@@H](N)C(C)CC)nn3)CC2)n1 (stereo partly specified) | 11.7% | -2.3 | -0.1% | · | 0.8% | 10.0% | -2.5
COC(=O)N/N=C/c1c(C)c(C(=O)c2ccc(F)cc2)n2ccccc12 | 27.5% | 5.3 | 6.0% | -0.8% | -0.8% | -2.3% | -2.7
CCCCN1/C(=C/c2cccc[n+]2C)Sc2cc(NC(C)=O)ccc21 | -6.6% | ? | 1.1% | -72.7%[inhibitor] | -4.2% | -11.6% | -5.4
